# UCH37 DUB inh: blocks the human deubiquitinase UCH37. Q9Y5K5. purified proteasome/UCH37, Ub-AMC cleavage fluorescence. inhibition, % (concentration not given with the values). actives 0.33% (n = 330,000);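 active = mean of two replicates above 20%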;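 note: 0% = compound-free wells with enzyme and 100% = wells lacking proteasome; stock transfer was 100 nL into about 20 µL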
#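 Assay system: Proteasome-bound UCH37. Buffer or medium: pH 7.4 Tris-HCl (50 mM) with ovalbumin, ATP-MgCl2, DTT. Incubation: 30 min preincubation with enzyme, 25 min cleavage at room temperature. Measured by: fluorescence, ex 355 nm, em 460 nm. Read-out basis: percent inhibition. Control set: wells without proteasome as full block, compound-free enzyme plus substrate as uninhibited.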
# B2AR ag: human beta-2 adrenergic receptor agonism by FAP. P07550. response, % (test concentration not listed). AID 504454. actives 0.43% (n = 340,000). Am2.2-beta2AR cells, FAP receptor internalization, flow cytometry; reference of the scale not given here;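 active = response above a set limit, near 3 SD of response in nonfluorescent compounds, cut at about 42% in these data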;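 note: stock transfer was 100 nL into about 11 µL; a reference agonist was the positive control; negative values mostly stem from fluorescent compounds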
# RanGTP-Imp inh: inhibitors of RanGTP-importin-beta interaction, primary screen, biochemical, FRET, CFP-Ran, YFP-importin-beta, homogeneous; cell-free CFP-Ran/YFP-importin-beta FRET ratio; inhibition, % (concentration not given with the values); actives 1.1% (n = 300,000);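 active = most replicates above 15%; inconclusive = exactly half above 15%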;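 note: 0% = DMSO wells and 100% = Ran loaded with GDP instead of GTP; wells of about 40 µL received 100 nL stock; the first replicate is given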
# Beta apoptosis: beta cell apoptosis inhibition | INS-1E cytokine-induced death, ATP luminescence, 48 h; percent of positive-control rescue, neutral wells zero | protection from apoptosis, % (concentration not given with the values) | actives 0.8% (n = 300,000);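 active = all replicates at 75% or more, or half of them and the mean; inconclusive = half reach 75% but not the mean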;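 note: 0% = cytokine-treated negative control wells and 100% = positive control rescue; higher means more ATP so stronger rescue from cytokine killing; wells of about 40 µL received 100 nL stock; the first replicate is given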
# T cruzi inh: blocks replication of Trypanosoma cruzi; actives 1.4% (n = 300,000); T. cruzi beta-gal in NIH3T3, luminescence, 90 h; inhibition, % (concentration not given with the values);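 active = mean inhibition across valid replicates above about 55%, limit read from the data; inconclusive = mean below that limit but half or more replicates reach it; inactive = mean below it, under half of replicates reach it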;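 note: signal also drops with host cell toxicity which is not excluded here; 0% = plate median of DMSO wells and 100% = zero luminescence signal; higher percent means less beta-gal luminescence so fewer parasites; stock transfer was 50 nL into about 50 µL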
# LANA-H2A inh: blocks KSHV LANA binding to histone H2A/H2B. cell-free LANA-H2A/H2B peptide, fluorescence polarization. Q9QR71. actives 0.6% (n = 320,000). inhibition, % (no concentration beside the values); in the data active = inhibition mostly above about 10%, no sharp cut-off; inactive = mostly below about 6.7%;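 note: stock transfer was 7.5 nL into about 10 µL; 0% = median of vehicle wells and 100% = median of positive control wells; one replicate is shown; the record names a cut of 25% in any replicate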
# Target sequence (Q9QR71 whole entry, looked up): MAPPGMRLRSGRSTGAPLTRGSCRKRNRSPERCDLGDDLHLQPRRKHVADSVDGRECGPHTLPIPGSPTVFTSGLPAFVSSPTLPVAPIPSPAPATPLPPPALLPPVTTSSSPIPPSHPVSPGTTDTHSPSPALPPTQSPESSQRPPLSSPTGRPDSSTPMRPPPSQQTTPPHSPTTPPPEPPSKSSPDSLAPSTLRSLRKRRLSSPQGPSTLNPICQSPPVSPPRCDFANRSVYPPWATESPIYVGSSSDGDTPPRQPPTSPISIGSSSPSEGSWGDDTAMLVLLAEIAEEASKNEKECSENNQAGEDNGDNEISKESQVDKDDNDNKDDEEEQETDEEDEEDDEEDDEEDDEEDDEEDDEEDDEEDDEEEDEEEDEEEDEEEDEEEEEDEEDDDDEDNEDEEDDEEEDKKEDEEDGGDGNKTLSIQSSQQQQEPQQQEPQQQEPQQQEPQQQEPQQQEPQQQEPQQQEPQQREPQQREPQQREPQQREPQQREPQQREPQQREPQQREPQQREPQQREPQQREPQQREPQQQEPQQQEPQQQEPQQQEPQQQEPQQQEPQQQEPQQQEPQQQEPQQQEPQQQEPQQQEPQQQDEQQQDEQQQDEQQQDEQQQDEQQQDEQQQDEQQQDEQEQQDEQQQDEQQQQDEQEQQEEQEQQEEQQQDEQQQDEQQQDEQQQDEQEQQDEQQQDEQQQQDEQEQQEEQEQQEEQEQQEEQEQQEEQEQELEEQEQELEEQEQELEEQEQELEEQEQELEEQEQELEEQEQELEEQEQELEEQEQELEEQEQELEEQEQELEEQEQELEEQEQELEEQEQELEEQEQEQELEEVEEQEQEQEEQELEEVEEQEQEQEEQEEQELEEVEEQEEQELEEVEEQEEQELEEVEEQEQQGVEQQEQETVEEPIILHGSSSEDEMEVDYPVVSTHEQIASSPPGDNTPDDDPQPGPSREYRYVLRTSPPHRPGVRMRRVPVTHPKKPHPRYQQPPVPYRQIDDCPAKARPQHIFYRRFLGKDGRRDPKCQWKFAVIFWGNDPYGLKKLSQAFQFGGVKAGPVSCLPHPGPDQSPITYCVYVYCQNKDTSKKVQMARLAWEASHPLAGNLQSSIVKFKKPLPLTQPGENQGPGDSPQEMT
# Bfl-1 A1 inh: inhibitors of the anti-apoptotic protein A1, read as caspase activation; actives 0.066% (n = 330,000); MEF A1-2A-BIM cells, Caspase-Glo 3/7 luminescence, 3 h; percent of clofoctol response, vehicle zero; caspase activation, % (no concentration beside the values); AID 2462;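 active = over half of replicate activation scores above 10%, or exactly half above 10 with the replicate mean above 10; inconclusive = replicate mean below 10 yet half the replicates above 10; inactive = over half of replicates below 10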;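 note: wells of about 30 µL received 50 nL stock; many hits fall short of the cut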
# Calb FLC: C. albicans growth modulation with fluconazole | growth inhibition, % (no concentration beside the values) | AID 1979 | actives 0.57% (n = 300,000) | C. albicans CaCi-2 (fluconazole-resistant clinical isolate) + fluconazole, Alamar Blue growth, 48 h;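 active = most replicates above 75%; inconclusive = exactly half above 75%; inactive = most below 75%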;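 note: all wells also contain fluconazole at 8 µg/ml as a sub-toxic cotreatment; 0% = median of DMSO wells and 100% = median of geldanamycin control wells; wells of about 8 µL received 7.5 nL stock; the first replicate is given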
# The depositor's hits bear a star; ? = inconclusive; · = not tested or not shown.
SMILES,UCH37 DUB inh,B2AR ag,RanGTP-Imp inh,Beta apoptosis,T cruzi inh,LANA-H2A inh,Bfl-1 A1 inh,Calb FLC
NS(=O)(=O)c1cccc(NC(=O)COC(=O)c2cc(-c3ccc(Cl)cc3)nc3ccccc23)c1,4.3,0,-2.1,1,-6,3.8,-1.1,17
Oc1ccccc1Nc1ccccn1,2.7,9,-4.9,-3,-2,-1.7,-1.8,1
O=C(COc1ccc(/C=N/NC(=O)c2ccc(O)cc2)cc1)Nc1ccc([N+](=O)[O-])cc1,·,0,-0.2,2,-16,·,-0.2,2
NC(=O)CC[C@H](NC(=O)c1ccc(F)cc1)C(=O)OCC(=O)NCc1ccc(F)cc1,4.1,6,-1.0,·,4,-4.3,0.1,4
CC(=O)NC(=S)Nc1ccc(NC(=S)NC(=O)c2ccc([N+](=O)[O-])cc2)cc1,5.9,-7,1.4,-1,5,0.4,0.0,-6
Cc1cccn2c(=O)c(C=O)c(N3CC(C)OC(C)C3)nc12 (stereo not given),6.3,2,0.0,6,8,-2.2,0.5,13
Cc1ccccc1OCC(=O)Nc1ccccc1N1CCCCC1,1.4,-8,1.8,4,16,0.3,0.9,2
CCOC(=O)N1CCN(Cc2nc3cc([N+](=O)[O-])ccc3n2CC)CC1,4.6,2,-3.5,5,7,11,-0.6,-11
CCOc1ccc(C(=O)/C=C/Nc2ccc(S(=O)(=O)Nc3onc(C)c3C)cc2)cc1,1.7,10,1.5,-3,-11,3.9,0.3,-2
O=C(NC1CCCC1)c1cc(-c2ccc(Cl)c(Cl)c2)on1,0.1,6,-0.7,4,11,-0.3,-0.7,-10
CC(N=C1NS(=O)(=O)c2ccccc21)C(=O)Nc1ccc(F)cc1Cl (stereo not given),-2.0,-4,·,2,·,2.6,0.1,·
CCN=C(Nc1ccc(Cl)cc1)c1cccnc1,0.2,-4,-6.9,-5,-15,-2.1,0.6,-12
O=C1COc2ccc(C(=O)COC(=O)Cn3cnc4ccccc43)cc2N1,3.0,1,2.1,-5,-17,-0.4,1.4,·
N#CCSc1nnc(CNc2ccc(F)cc2)o1,2.5,3,3.0,1,-16,6.6,0.3,-5
Cn1c(CSCc2ccccc2)nnc1SCC(=O)Nc1ccc(C(=O)O)cc1,-0.9,6,-3.1,-4,-15,2.8,0.3,-1

# 3 records picked at random from the list so far, as already listed:
SMILES,UCH37 DUB inh,B2AR ag,RanGTP-Imp inh,Beta apoptosis,T cruzi inh,LANA-H2A inh,Bfl-1 A1 inh,Calb FLC
N#CCSc1nnc(CNc2ccc(F)cc2)o1,2.5,3,3.0,1,-16,6.6,0.3,-5
Cc1ccccc1OCC(=O)Nc1ccccc1N1CCCCC1,1.4,-8,1.8,4,16,0.3,0.9,2
NC(=O)CC[C@H](NC(=O)c1ccc(F)cc1)C(=O)OCC(=O)NCc1ccc(F)cc1,4.1,6,-1.0,·,4,-4.3,0.1,4

# Continuation:
SMILES,UCH37 DUB inh,B2AR ag,RanGTP-Imp inh,Beta apoptosis,T cruzi inh,LANA-H2A inh,Bfl-1 A1 inh,Calb FLC
O=C(NCc1ccccc1)Oc1cccc(Cl)c1,1.3,3,1.4,-3,-5,-1.8,0.0,-9
COC(=O)c1cc(OC)c(OC)cc1NC(=O)c1cc(OC)cc(OC)c1,-6.6,16,-3.1,-6,18,-7.7,0.0,-3
Cc1coc(NC(=O)CSc2nc(-c3ccc(Cl)cc3)cc(C(F)(F)F)c2C#N)n1,-127,13,-2.0,2,-12,-1.7,4.2,-6
Cc1ccccc1CN(c1ccc(C(=O)NCC2CCCO2)cc1)S(C)(=O)=O (stereo not given),3.5,1,?,3,-8,-5.2,-0.1,1
CCOc1cc(S(=O)(=O)NCCc2ccc(OC)c(OC)c2)c(OCC)cc1-n1cnnn1,-0.4,-3,6.5,1,12,2.8,0.1,-10
COCC1CCN(C(=O)c2cc(COc3ccc(-n4cncn4)cc3)on2)C1 (stereo not given),0.6,-1,-0.2,-1,-11,-0.6,-0.1,10
CC(=O)c1c(CC(=O)O)[nH]n(-c2nc3ccccc3s2)c1=O,5.7,1,-3.6,42,-8,2.2,-6.7,15
Cc1ccc(OCC(=O)N2CCOCC2)c([N+](=O)[O-])n1,2.5,11,0.2,-5,-8,1.7,0.6,-2
COc1ccccc1[C@@]1(C)ON(c2ccccc2C(F)(F)F)C1=O,4.2,24,·,-9,·,-3.2,2.3,·
O=S(=O)(c1ccc(Cl)c(F)c1)N1CCC(c2nc(-c3ccncc3)no2)CC1,3.0,-1,2.5,-1,54,3.6,0.1,-11
Cn1ncc(Br)c1NC(=O)c1cc(Cl)cc(Cl)c1,3.4,-1,-1.8,·,-19,-2.8,1.0,-12
O=C(O)CCC(=O)NNC(=O)c1ccc(Br)cc1,·,3,?,2,-11,-0.1,-0.2,23
Cc1ccnc(SCc2cc(=O)c(OC(=O)c3ccco3)co2)n1,0.0,2,4.1,0,-5,1.1,0.5,-5
N#Cc1c(Cl)nsc1NC(=O)c1ccccc1,3.1,29,-3.0,78*,-26,7.3,-3.7,106*
COc1ccc(CN2C(=O)CCC2(C)C(=O)NCc2cccnc2)c(OC)c1 (stereo not given),3.1,0,1.7,-2,-13,8.8,-0.3,?
Cc1ccccc1Cn1ccc(NC(=O)c2nn(C)cc2[N+](=O)[O-])n1,3.4,2,-3.2,-70,-19,1.5,0.8,-5
CN(C)c1ccc(/C=N/N2C(=O)c3ccccc3C2=O)cc1,·,-8,5.0,-1,7,-3.0,-2.5,-6
O=C(Nc1ccccc1)Nc1nc2ccccc2s1,1.4,0,0.0,3,-5,-1.5,-3.7,18
Cc1nc(NCc2ccccn2)c2ccccc2n1,1.6,6,1.7,7,-7,-0.3,-0.7,-6
CC1(C)NC(=O)N(CC(O)COc2cccc(F)c2)C1=O (stereo not given),2.7,7,?,-2,5,1.5,0.6,-4
COc1ccc(F)cc1C(=O)C1CCCN(Cc2ccc(Sc3nncn3C)o2)C1 (stereo not given),-3.9,-5,-0.4,1,4,-1.8,-0.7,0
COc1ccc(COC(=O)CNC(=O)C2CCCCC2)cc1F,-1.7,0,·,-3,·,9.7,2.2,·
COc1cc(N)c(Cc2nccc3cc(OC)c(OC)cc23)cc1OC,1.1,-9,-1.7,-7,40,1.4,-0.3,-4
COc1ccc(N(CCCN2C(=O)c3cccc4cccc(c34)C2=O)C(=O)c2ccncc2)cc1,3.4,-9,?,-1,55*,5.6,-0.2,-4
CC(=O)c1cccc(NC(=O)C(C)OC(=O)CNC(=O)c2ccc(C)s2)c1 (stereo not given),3.1,9,0.1,-2,-3,-1.4,0.6,1
CCN(C(=O)CSc1nncn1-c1ccccc1)C1CCS(=O)(=O)C1 (stereo not given),0.2,-3,0.3,·,-4,1.8,-0.4,-3
Cc1ccnc(NC(=O)CCCNC(=O)c2ccc(Cl)cc2)c1,5.1,-1,2.1,-7,4,6.1,-0.2,1
COc1cc(C(=O)NC(=S)Nc2nccs2)cc(OC)c1OC,3.4,1,1.9,5,2,-2.1,0.0,0
CCN(c1ccccc1)S(=O)(=O)c1ccc2ccccc2c1,3.7,-7,0.5,-8,2,-4.2,1.1,-1
NC(=O)c1ccccc1NC(=O)/C=C/c1ccc(Cl)cc1,-81,-20,23*,-9,-9,-0.8,-8.0,-13
Cc1cccc(C(C)C)c1NC(=O)CN1C(=O)NC2(CCc3ccccc32)C1=O (stereo not given),1.0,0,3.7,-6,-8,-12,0.0,0
O=C(/C=C/c1cccc([N+](=O)[O-])c1)Nc1cccc(NC(=O)c2cccs2)c1,5.8,12,?,3,-71,-0.2,-0.1,?
NC(=O)CNC(=O)[C@@H]1CC2(CC(c3cccc([N+](=O)[O-])c3)=NO2)CN1C(=O)c1ccccc1 (stereo not given in full),2.2,-2,2.6,2,-30,9.5,0.2,-5
COc1cc2c(C#CCCO)c(-c3ccc(C#N)cc3)oc(=O)c2cc1OC,-9.8,-16,·,8,·,3.6,-1.7,·
Cn1cc(CN2CCN(Cc3ccccc3)C(CCO)C2)c(-c2ccccc2)n1 (stereo not given),1.2,-7,10,-3,4,4.1,0.1,1
Cc1cc2ncn(C(=O)N3CCCCC3)c2cc1C,4.0,-3,1.2,-8,1,-7.6,-0.8,-2
N=C1SC(c2ccccc2)C(=O)N1c1ncc(Cc2ccccc2)s1 (stereo not given),1.0,-2,1.7,12,3,-0.6,-0.3,4
COc1ccc2[nH]c3c(c2c1)CCN1C(=O)N([C@@H](C)C(=O)NCC2CCCO2)C(=O)[C@]31C (stereo not given in full),-1.4,-1,7.0,-8,-2,-6.8,-1.0,-3
COc1ccc(CC(=O)NNC(=O)COc2ccc(C)cc2)cc1S(=O)(=O)N1CCOCC1,2.5,3,5.3,2,-8,2.2,-0.3,1
Cc1ccsc1/C=N/NC(=S)NCCc1ccccc1,·,-1,0.1,5,0,-3.9,-0.9,12
Oc1ccc(N=Nc2cccc(C(F)(F)F)c2)cc1C=Nc1ccc(N2CCOCC2)cc1,·,21,-5.7,24,1,0.2,-1.6,-31
CCOc1cc(/C=C2/NC(=O)N(CC(=O)OC)C2=O)ccc1O,9.2,26,0.4,-4,-34,-3.2,0.0,0
CNS(=O)(=O)c1cccc(C(=O)NCC2CCCCC2)c1,3.6,-5,?,0,-12,1.1,-0.9,-8
Clc1ccc(C(c2nnnn2CCc2ccccc2)N2CCSCC2)cc1 (stereo not given),1.0,10,5.4,11,2,1.6,0.2,26
COc1ccc2c(c1)CCc1cnc(N)nc1-2,-192,-4,-2.4,-11,-1,2.4,-0.4,2
O=C(Nc1nc2ccccc2s1)c1ccc2c(c1)OCO2,-10,-8,4.0,16,-11,5.4,-6.9,-27
CC1CCN(C(=O)CN(c2ccc3c(c2)OCO3)S(C)(=O)=O)CC1,0.2,7,?,-5,-17,2.0,0.7,-1
Cc1ccc(-c2cc(C(=O)OCC(=O)N(C)C3CCS(=O)(=O)C3)c3ccccc3n2)c(C)c1 (stereo not given),5.4,0,1.1,-5,-2,-2.5,0.8,-2
COc1cc2c(cc1OC)C(c1ccccc1)N(C(=O)CCl)CC2 (stereo not given),1.0,-5,0.2,9,-3,0.4,1.0,-26

# 7 compounds from above, limited to RanGTP-Imp inh and LANA-H2A inh.
Molecule | RanGTP-Imp inh | LANA-H2A inh
Cn1cc(CN2CCN(Cc3ccccc3)C(CCO)C2)c(-c2ccccc2)n1 (stereo not given) | 10 | 4.1
Cc1cc2ncn(C(=O)N3CCCCC3)c2cc1C | 1.2 | -7.6
N=C1SC(c2ccccc2)C(=O)N1c1ncc(Cc2ccccc2)s1 (stereo not given) | 1.7 | -0.6
COc1ccc2[nH]c3c(c2c1)CCN1C(=O)N([C@@H](C)C(=O)NCC2CCCO2)C(=O)[C@]31C (stereo not given in full) | 7.0 | -6.8
COc1ccc(CC(=O)NNC(=O)COc2ccc(C)cc2)cc1S(=O)(=O)N1CCOCC1 | 5.3 | 2.2
Cc1ccsc1/C=N/NC(=S)NCCc1ccccc1 | 0.1 | -3.9
Oc1ccc(N=Nc2cccc(C(F)(F)F)c2)cc1C=Nc1ccc(N2CCOCC2)cc1 | -5.7 | 0.2

# High-throughput results as filed in PubChem BioAssay.
